# A1 apoptosis 2: compounds inhibiting A1, read as caspase activation; MEF A1-2A-BIM cells, caspase-Glo luminescence, 3 h; percent of clofoctol response, DMSO zero; caspase activation, % (test concentration not listed); 24,000 tested, under 10 active; in the data active = caspase activation above about 5.9%;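 also: wells of about 30 µL received 50 nL stock; the first replicate is given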
#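 system = A1-2A-BIM-expressing MEF cells | quantity = 2500 MEF cells/well | dosing = 50 nL compound per well, pinned | schedule = overnight cell settling, then 3 h compound exposure, 37 °C | signal = luminescence from DEVD-luciferin Caspase-Glo reagent, 1:1 in 50 mM HEPES, 1 h RT | read-out = Caspase-3/7 activation, seen as rise in luminescence signal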
# * = called active by the depositor. Not all compounds are listed; the hit share may differ from the screen's.
SMILES,A1 apoptosis 2
C[C@H](CO)N1C[C@H](C)[C@H](CN(C)S(=O)(=O)c2ccc(F)cc2)Oc2c(NS(=O)(=O)c3ccccc3)cccc2C1=O,0.2
C[C@@H]1CN([C@@H](C)CO)C(=O)c2cc(NS(C)(=O)=O)ccc2O[C@@H](C)CCCCO[C@H]1CN(C)S(=O)(=O)c1ccc(F)cc1,0.2
C[C@@H]1CCCCO[C@H](CN(C)C(=O)Nc2ccc3c(c2)OCO3)[C@@H](C)CN([C@H](C)CO)C(=O)c2cc(NS(=O)(=O)c3cccs3)ccc2O1,0.3
COc1ccc(NC(=O)N(C)C[C@H]2Oc3ccc(NS(=O)(=O)c4ccc(Cl)cc4)cc3C(=O)N([C@@H](C)CO)C[C@@H]2C)cc1,-0.8
C[C@H]1CN([C@@H](C)CO)C(=O)Cc2cc(NC(=O)C3CC3)ccc2O[C@H]1CN(C)Cc1ccc(C(=O)Nc2ccccc2N)cc1,0.6
CC(C)NC(=O)Nc1cccc2c1O[C@@H](CN(C)Cc1ccc3c(c1)OCO3)[C@H](C)CN([C@H](C)CO)C2=O,0.7
COC(=O)C(CC#Cc1ccc2c(c1)[C@]1(C(=O)N2)[C@H](C(=O)NC[C@H](O)c2ccccc2)[C@H]2C(=O)O[C@H](c3ccccc3)[C@H](c3ccccc3)N2[C@@H]1c1ccc(OCCO)cc1)C(=O)OC,0.3
C[C@@H]1CN([C@H](C)CO)C(=O)c2cccc(NC(=O)c3ccc(-c4nccs4)cc3)c2O[C@H]1CN(C)Cc1ccccc1,-1.0
CC(C)NC(=O)Nc1ccc2c(c1)CC(=O)N([C@H](C)CO)C[C@H](C)[C@H](CN(C)Cc1ccncc1)O2,0.8
O=C(C1=C[C@@H](C2CC2)C[C@@H](OCCCCO)O1)N1CCCCCCC1,0.0
C[C@@H]1CN([C@H](C)CO)C(=O)c2cccc(NC(=O)NC3CCCCC3)c2O[C@@H]1CN(C)S(=O)(=O)c1cn(C)cn1,1.4
Cc1ccc(S(=O)(=O)Nc2ccc3c(c2)CC(=O)N([C@@H](C)CO)C[C@H](C)[C@@H](CN(C)Cc2ccncc2)O3)cc1,0.0
COc1ccc(CN(C)C[C@@H]2OCCCC[C@H](C)Oc3ccc(NC(=O)Nc4ccc(C(F)(F)F)cc4)cc3C(=O)N([C@H](C)CO)C[C@H]2C)cc1,-1.1
C[C@H]1CN([C@@H](C)CO)C(=O)c2cccc(NC(=O)c3cnccn3)c2O[C@@H]1CN(C)Cc1ccc(C(F)(F)F)cc1,-0.7
Cc1ccc(S(=O)(=O)Nc2cccc3c2O[C@H](CN(C)C(=O)NC(C)C)[C@@H](C)CN([C@H](C)CO)C3=O)cc1,-0.3
COc1ccc(S(=O)(=O)Nc2ccc3c(c2)CC(=O)N([C@H](C)CO)C[C@@H](C)[C@@H](CN(C)CC2CC2)O3)cc1,1.3
Cc1noc(C)c1NC(=O)N(C)C[C@@H]1OCCCC[C@@H](C)Oc2ccc(NC(=O)C3CCCCC3)cc2C(=O)N([C@@H](C)CO)C[C@H]1C,-0.9
C[C@@H]1CN([C@H](C)CO)C(=O)c2cccc(NS(=O)(=O)c3cccs3)c2O[C@@H]1CN(C)Cc1ccc(C(F)(F)F)cc1,-0.5
NCCCCCCNC(=O)[C@@H]1C[C@@H]2C(=O)NCC(=O)N2[C@@H]1c1cccc(OCCO)c1,-1.0
C[C@@H]1CN([C@@H](C)CO)C(=O)c2cc(NC(=O)NC3CCCCC3)ccc2O[C@@H]1CN(C)S(=O)(=O)c1cn(C)cn1,-0.1
C[C@@H]1CN([C@H](C)CO)C(=O)Cc2cc(NC(=O)C3CC3)ccc2O[C@H]1CN(C)C(=O)Nc1ccc(F)cc1,0.3
C[C@@H]1CN([C@H](C)CO)C(=O)c2cccc(NC(=O)c3ccncc3)c2O[C@H]1CN(C)S(C)(=O)=O,-0.3
C[C@H]1CN([C@@H](C)CO)C(=O)c2cccc(NS(=O)(=O)c3ccc(Cl)cc3)c2O[C@@H]1CN(C)Cc1ccncc1,-0.8
C[C@H](CO)N1C[C@H](C)[C@@H](CN(C)C(=O)Nc2ccccc2)Oc2c(NC(=O)Nc3ccc(C(F)(F)F)cc3)cccc2C1=O,0.6
C[C@@H]1CN([C@H](C)CO)C(=O)Cc2cc(NC(=O)Nc3ccc(F)cc3)ccc2O[C@@H]1CN(C)Cc1ccc(Oc2ccccc2)cc1,-0.1
C[C@H]1CN([C@@H](C)CO)C(=O)Cc2cc(NC(=O)Cc3cn(C)c4ccccc34)ccc2O[C@H]1CN(C)Cc1ccc(Oc2ccccc2)cc1,-0.6
C[C@@H]1CCCCO[C@@H](CN(C)C(=O)CCCN(C)C)[C@H](C)CN([C@@H](C)CO)C(=O)c2cc(NC(=O)Nc3ccc(F)cc3)ccc2O1,1.9
C[C@@H]1CN([C@H](C)CO)C(=O)c2cc(NC(=O)NC3CCCCC3)ccc2O[C@@H]1CN(C)S(=O)(=O)c1cccs1,-0.3
COc1ccc(S(=O)(=O)N(C)C[C@H]2Oc3ccc(NC(=O)CCCN(C)C)cc3C(=O)N([C@@H](C)CO)C[C@@H]2C)cc1,-0.2
COc1ccc(S(=O)(=O)Nc2cccc3c2O[C@H](CN(C)S(=O)(=O)c2cccs2)[C@H](C)CN([C@@H](C)CO)C3=O)cc1,0.7
C[C@@H]1CN([C@H](C)CO)C(=O)c2cccc(NS(C)(=O)=O)c2O[C@H]1CN(C)Cc1ccc(C(=O)Nc2ccccc2N)cc1,1.9
C[C@H]1CN([C@@H](C)CO)C(=O)c2cc(N(C)C)ccc2O[C@@H]1CN(C)C(=O)Nc1ccccc1,0.1
C[C@@H]1CN([C@H](C)CO)C(=O)Cc2cc(NC(=O)Cn3cnnn3)ccc2O[C@H]1CN(C)C(=O)Nc1ccccc1,0.1
C[C@@H]1CN([C@@H](C)CO)C(=O)c2cccc(NS(=O)(=O)c3ccccc3)c2O[C@@H]1CN(C)Cc1ccc2c(c1)OCO2,-0.4
C[C@H]1CN([C@@H](C)CO)C(=O)c2cccc(NS(=O)(=O)c3ccc(F)cc3)c2O[C@@H]1CN(C)Cc1ccc(-c2ccccc2)cc1,0.2
COc1ccc(NC(=O)Nc2cccc3c2O[C@@H](CN(C)C(=O)Nc2ccc(F)cc2)[C@@H](C)CN([C@H](C)CO)C3=O)cc1,-0.1
C[C@@H]1CCCCO[C@@H](CN(C)CC2CC2)[C@H](C)CN([C@@H](C)CO)C(=O)c2cc(NC(=O)Nc3ccc4c(c3)OCO4)ccc2O1,1.0
C[C@H](CO)N1C[C@H](C)[C@H](CN(C)C(=O)Nc2cccc3ccccc23)Oc2ncc(C#Cc3ccc(C(F)(F)F)cc3)cc2C1=O,-0.1
Cc1ccc(S(=O)(=O)Nc2cccc3c2O[C@@H](CN(C)C(=O)Nc2cccc4ccccc24)[C@H](C)CN([C@@H](C)CO)C3=O)cc1,-0.7
C[C@@H]1CCCCO[C@H](CN(C)C(=O)CCC(F)(F)F)[C@H](C)CN([C@@H](C)CO)C(=O)c2cc(NC(=O)Cc3ccccc3)ccc2O1,-0.7
C[C@@H]1CN([C@H](C)CO)C(=O)Cc2cc(NC(=O)CCC(F)(F)F)ccc2O[C@@H]1CN(C)CC1CCCCC1,-1.1
C[C@@H]1CN([C@H](C)CO)C(=O)c2cc(NC(=O)Cc3ccccc3)ccc2O[C@H]1CN(C)C(=O)Nc1ccc2c(c1)OCO2,0.1
COc1ccc(NC(=O)Nc2ccc3c(c2)C(=O)N([C@H](C)CO)C[C@@H](C)[C@@H](CN(C)C(=O)Nc2ccc(OC)cc2)O3)cc1,0.3
CC(C)NC(=O)Nc1ccc2c(c1)CC(=O)N([C@@H](C)CO)C[C@@H](C)[C@@H](CN(C)C(=O)Nc1ccccc1)O2,-0.1
Cc1noc(C)c1NC(=O)Nc1cccc2c1O[C@@H](CN(C)Cc1ccc(Oc3ccccc3)cc1)[C@@H](C)CN([C@@H](C)CO)C2=O,0.5
C[C@@H]1CN([C@@H](C)CO)C(=O)c2cccc(NC(=O)c3ccc(-c4nccs4)cc3)c2O[C@@H]1CN(C)C(=O)Nc1ccccc1,-2.3
C[C@@H]1CN([C@H](C)CO)C(=O)Cc2cc(N(C)C)ccc2O[C@@H]1CN(C)Cc1ccc(Oc2ccccc2)cc1,-1.6
CC(C)NC(=O)N(C)C[C@H]1Oc2ccc(NS(=O)(=O)c3ccc(F)cc3)cc2C(=O)N([C@@H](C)CO)C[C@@H]1C,0.2
C[C@H](CO)N1C[C@H](C)[C@H](CN(C)C(=O)NC2CCCCC2)Oc2c(NC(=O)Nc3cccc4ccccc34)cccc2C1=O,0.7
C[C@@H]1CCCCO[C@@H](CN(C)C(=O)Nc2ccc(F)cc2)[C@H](C)CN([C@@H](C)CO)C(=O)c2cc(NC(=O)Cc3ccccc3)ccc2O1,-0.5

# Structures from the list above containing a CF3 group, in the order listed:
SMILES,A1 apoptosis 2
COc1ccc(CN(C)C[C@@H]2OCCCC[C@H](C)Oc3ccc(NC(=O)Nc4ccc(C(F)(F)F)cc4)cc3C(=O)N([C@H](C)CO)C[C@H]2C)cc1,-1.1
C[C@H]1CN([C@@H](C)CO)C(=O)c2cccc(NC(=O)c3cnccn3)c2O[C@@H]1CN(C)Cc1ccc(C(F)(F)F)cc1,-0.7
C[C@@H]1CN([C@H](C)CO)C(=O)c2cccc(NS(=O)(=O)c3cccs3)c2O[C@@H]1CN(C)Cc1ccc(C(F)(F)F)cc1,-0.5
C[C@H](CO)N1C[C@H](C)[C@@H](CN(C)C(=O)Nc2ccccc2)Oc2c(NC(=O)Nc3ccc(C(F)(F)F)cc3)cccc2C1=O,0.6
C[C@H](CO)N1C[C@H](C)[C@H](CN(C)C(=O)Nc2cccc3ccccc23)Oc2ncc(C#Cc3ccc(C(F)(F)F)cc3)cc2C1=O,-0.1
C[C@@H]1CCCCO[C@H](CN(C)C(=O)CCC(F)(F)F)[C@H](C)CN([C@@H](C)CO)C(=O)c2cc(NC(=O)Cc3ccccc3)ccc2O1,-0.7
C[C@@H]1CN([C@H](C)CO)C(=O)Cc2cc(NC(=O)CCC(F)(F)F)ccc2O[C@@H]1CN(C)CC1CCCCC1,-1.1

# (cont.)
SMILES,A1 apoptosis 2
COc1ccc(S(=O)(=O)Nc2ccc3c(c2)C(=O)N([C@@H](C)CO)C[C@@H](C)[C@H](CN(C)C(=O)Nc2cccc4ccccc24)OCCCC[C@@H](C)O3)cc1,-0.3
C[C@@H]1CCCCO[C@@H](CN(C)C(=O)c2ccncc2)[C@H](C)CN([C@@H](C)CO)C(=O)c2cc(NC(=O)C3CCCCC3)ccc2O1,-0.7
C[C@H]1CCCCO[C@@H](CN(C)C(=O)Nc2cccc3ccccc23)[C@@H](C)CN([C@@H](C)CO)C(=O)c2cc(NS(=O)(=O)c3ccc(F)cc3)ccc2O1,0.6
C[C@@H]1CN([C@@H](C)CO)C(=O)Cc2cc(NC(=O)Nc3ccc4c(c3)OCO4)ccc2O[C@@H]1CN(C)Cc1ccncc1,-0.1
Cc1noc(C)c1NC(=O)N(C)C[C@@H]1Oc2c(NS(=O)(=O)c3cn(C)cn3)cccc2C(=O)N([C@H](C)CO)C[C@H]1C,1.2
C[C@H](CO)N1C[C@H](C)[C@@H](CN(C)C(=O)Nc2ccc(C(F)(F)F)cc2)Oc2ccc(NC(=O)NC3CCCCC3)cc2CC1=O,-0.6
COc1ccc(S(=O)(=O)Nc2ccc3c(c2)C(=O)N([C@H](C)CO)C[C@@H](C)[C@@H](CN(C)Cc2ccncc2)O3)cc1,0.4
C[C@@H]1CN([C@H](C)CO)C(=O)c2cc(NC(=O)CCCN(C)C)ccc2O[C@@H]1CN(C)Cc1ccc(-c2ccccc2)cc1,0.3
COc1ccc(NC(=O)N(C)C[C@H]2Oc3ccc(NS(=O)(=O)c4ccc(Cl)cc4)cc3C(=O)N([C@@H](C)CO)C[C@H]2C)cc1,0.4
COc1ccc(S(=O)(=O)Nc2ccc3c(c2)C(=O)N([C@H](C)CO)C[C@H](C)[C@H](CN(C)S(=O)(=O)c2ccc(F)cc2)OCCCC[C@H](C)O3)cc1,-0.4
Cc1nc(S(=O)(=O)N[C@H]2CCN(Cc3ccc(OCCO)cc3)C2)cn1C,-0.1
